Bioassay records as filed in PubChem.
CtBP-E1A blk: inhibitors of CtBP/E1A interaction | AlphaScreen GST-E1A/His-CtBP binding, 1536-well; hits give low values; control for the full effect not named in the record | activity change, % (test concentration not listed) | 0.49% of 340,000 active | AID 651724; in the data active means activity change below about -65%; inconclusive means about -30% to -65%; inactive means above about -30%; also: % is scaled to controls: 0 for no effect and ±100 for the full control effect; compound concentration not given in the record
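Protein mix (5X: 125 nM each GST-E1A, His-CtBP) was incubated with pinned compound 2 h at 37 deg C in dark, in 50 mM Tris pH 8.0 buffer with 300 mM NaCl. Glutathione donor and nickel acceptor beads followed; AlphaScreen signal read after 1 h.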
gsp agonist: agonists of gsp mutant (McCune-Albright syndrome). gsp mutant cells, cAMP HTRF, 30 min; control for the full effect not named in the record. Potency, µM (titrated, usually from 76.9 µM), for the others: top-dose activation (cAMP increase), usual class: activators. 0.13% of 340,000 active; active = well fitted activation curve with a large enough effect; inconclusive = small, poorly fitted or top-dose-only effect, or another doubt; inactive = no such curve, though single readings can be large or run the other way; cell line not stated here;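 also: phosphodiesterase inhibitor Ro 20-1724 added with compounds to block cAMP breakdown; potency is read from the fitted curve at half-maximal effect; nearly all actives have a fitted effect of over 60% in size; about a fifth of the inactives were tested at one dose only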
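Cells in DMEM/10% FBS with G418 were pretreated with compounds in DMSO plus […] (300 uM stock) for 30 min at 37C. cAMP was measured by HTRF (cAMP-d2 plus anti-cAMP antibody-K) after 30 min at room temperature.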
D2 potentiator: positive allosteric modulators of human D2 dopamine receptor | P14416 | DiscoveRx D2 beta-arrestin cells, luminescence, 90 min; 100% = 57 uM dopamine signal | potentiation, % (no concentration beside the values) | 0.23% of 360,000 active; active = potentiation of 50% or more; inconclusive = 30% to 50%; inactive = 30% or less;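 also: compound concentration not given in the record; tested on top of an EC20 dose of dopamine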
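PathHunter beta-arrestin assay in DiscoveRx D2 cells. Compounds were added with an EC20 of dopamine (50 nM final) for 90 min at 37 deg C. Luminescence was read 1 h after detection reagent, with 57 uM dopamine as the EC100 control.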
Six1-Eya2 blk: Six1/Eya2 interaction inhibition | AID 651725 | 0.56% of 360,000 active | AlphaScreen GST-Six1/His-Eya2 binding, biochemical; hits give low values; control for the full effect not named in the record | activity change, % (concentration not given with the values); in the data active = activity change below about -65%; inconclusive = about -30% to -65%; inactive = above about -30%; also: % is scaled to controls: 0 for no effect and ±100 for the full control effect
Target sequence (O00167 whole entry, looked up): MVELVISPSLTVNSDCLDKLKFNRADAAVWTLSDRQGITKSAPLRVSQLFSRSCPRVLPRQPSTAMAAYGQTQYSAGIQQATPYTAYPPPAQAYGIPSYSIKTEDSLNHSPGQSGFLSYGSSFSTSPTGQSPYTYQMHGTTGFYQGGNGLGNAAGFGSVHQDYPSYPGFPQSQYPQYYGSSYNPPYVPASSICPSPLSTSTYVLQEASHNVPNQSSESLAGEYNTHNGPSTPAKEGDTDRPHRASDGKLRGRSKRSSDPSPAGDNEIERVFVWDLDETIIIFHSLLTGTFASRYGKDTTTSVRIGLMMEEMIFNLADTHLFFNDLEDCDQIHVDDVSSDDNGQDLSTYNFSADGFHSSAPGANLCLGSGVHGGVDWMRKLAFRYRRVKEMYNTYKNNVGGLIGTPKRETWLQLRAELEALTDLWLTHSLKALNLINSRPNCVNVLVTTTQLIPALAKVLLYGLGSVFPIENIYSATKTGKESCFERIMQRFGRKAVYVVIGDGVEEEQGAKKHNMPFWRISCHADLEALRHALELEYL
Target sequence (Q15475 whole entry, looked up): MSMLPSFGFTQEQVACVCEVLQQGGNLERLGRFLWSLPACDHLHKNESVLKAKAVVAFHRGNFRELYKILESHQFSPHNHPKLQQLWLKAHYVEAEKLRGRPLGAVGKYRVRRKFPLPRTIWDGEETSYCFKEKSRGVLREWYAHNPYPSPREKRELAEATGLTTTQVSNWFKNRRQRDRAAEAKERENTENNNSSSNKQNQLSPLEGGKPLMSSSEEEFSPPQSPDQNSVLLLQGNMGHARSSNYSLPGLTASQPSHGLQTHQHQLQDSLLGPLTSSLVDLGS
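GST-Six1 + His-Eya2 (5X stock: 250/500 nM); Tris pH 8.0, 300 mM NaCl, 0.05% BSA, 0.02% Tween 20; GSH donor/Ni acceptor beads; 1 h 37 °C dark; AlphaScreen readout.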
D2 agonist: activates the human D2 dopamine receptor | P14416 | DiscoveRx PathHunter D2 beta-arrestin, luminescence, 90 min; 100% = 57 uM dopamine signal | activation, % (test concentration not listed) | 0.084% of 360,000 active | AID 624465; in the data active = activation above about 40%; inconclusive = about 15% to 40%; inactive = below about 15%; also: compound concentration not given in the record; the text of the record calls up to 30% inactive
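Agonist mode: compounds alone added to overnight-plated D2 PathHunter cells for 90 min at 37 C, with 57 uM final dopamine (EC100) defining full response. Beta-arrestin recruitment detected by chemiluminescent reagent, read after 1 h at ambient temperature.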
gsp antag: antagonizes gsp, the McCune-Albright syndrome mutation; Potency, µM (doses to about 76.9 µM), for the others: top-dose activity change, negative = inhibition, most hits filed as inhibitors; AID 624288; gsp-mutant cells, cAMP HTRF, 30 min; control for the full effect not named in the record; 0.4% of 340,000 active; active = falling curve of any shape with a large fitted effect; inconclusive = falling curve, mostly with a smaller effect; inactive = flat or rising curve; cell line not stated here;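 also: intracellular cAMP measured with PDE inhibitor Ro 20-1724 present during compound exposure; potency is read from the fitted curve at half-maximal effect; % is scaled to controls: 0 for no effect and ±100 for the full control effect; nearly all actives have a fitted effect of over 65% in size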
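Cells, 2000/well, grown 16–24 h in DMEM 10% FBS with 0.5 mg/ml G418, then compounds plus […] (300 uM addition stock), 30 min at 37C. cAMP read by HTRF (cAMP-d2 and anti-cAMP antibody-K in lysis buffer) after 30 min RT.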
* marks the source's active call; other numbers are inactive results; ? = inconclusive; . = not tested or not shown; [ ] = dose if it differs, or a comment.

SMILES	CtBP-E1A blk	gsp agonist	D2 potentiator	Six1-Eya2 blk	D2 agonist	gsp antag
CC(=O)NCCNc1nc2c(-c3ccccc3)nnn2c2ccccc12	.	22µM*	-6	?	4.2	7%
COc1ccc(-c2noc(CCCC(=O)NC3CCCCC3)n2)cc1OC	11	-5%[15.4 µM]	-6	3	-5.7	-5%
Cc1ccc(NC(=O)CS(=O)CC(=O)N(C(C)C(=O)NC2CCCCC2)C(C)(C)C)cc1 (centres undefined)	3	1%[15.4 µM]	-4	8	-3.5	-5%
CC(C)n1nc(C(=O)Nc2nnc(C3CC3)s2)c2ccccc2c1=O	.	6%	-43	3	-1.4	-1%
CC(=O)Nc1ccc(N/C=C/C(=O)C(C)(C)C)cc1	10	-7%	-8	-2	2.6	-1%
CCn1cc(Br)c(-c2nc3ccccc3c(=O)n2N)n1	-3	13%	0	-1	1.9	-10%
COc1ccc(C(=O)N/N=C/c2ccccc2C(=O)O)cc1OC	2	14%	-9	2	-2.3	2%
Cc1nn(Cc2ccccc2)c(C)c1/C=N/NC(=O)c1ccncc1	.	-11%	-5	3	-1.9	5%
CCN1CCc2nc(NC(=O)Cc3ccc4c(c3)OCCO4)sc2C1	-9	?	-2	-2	1.4	16%
CCN(CC)S(=O)(=O)c1ccc(/C=C/C(=O)OCC(=O)NCc2cccs2)cc1	.	1%	3	3	-1.0	1%
O=[N+]([O-])c1ccc(Oc2ccc(-c3nnco3)cc2)c(Cl)c1	-6	14%	2	-2	-1.7	-13%
Cc1ccc(OCc2nnc(SCC(=O)Nc3nccs3)n2-c2ccccc2)cc1C	8	6%	-8	9	-2.9	4%
COc1ccc(N(/N=C2\Sc3ccccc3C2=O)C(C)=O)cc1	-12	-4%	-9	-3	-6.4	12%
CCCCN(Cc1ccco1)C(=O)c1cc2c(=O)[nH]c3ccc(C)cc3c2s1	-4	8%	-5	-10	-4.9	-31%
Cc1oc2ccc(OCc3ccc(Br)cc3)cc2c1C(=O)O	0	-1%	10	-3	2.0	-9%
CN(C)CCN1C(=O)CCC2(C)C1=CCC1C2CCC2(C)C1CCC2(C)O (centres undefined)	-5	2%[15.4 µM]	-5	0	0.1	11%
CC(=O)C1=C(C)N(Cc2ccccc2)C(=O)N[C@@H]1c1cccc(C(F)(F)F)c1	1	.	-7	-1	0.4	1%
COC(=O)c1ccc(N(CC(=O)NC2CCCC2)C(=O)CNC(=O)c2cccs2)cc1	21	-7%[15.4 µM]	-3	4	-4.3	4%
COc1ccc(CNC(=S)N/N=C/c2ccc(O)c(OC)c2)cc1	8	-1%[15.4 µM]	-16	-23	-0.4	8%
CCOC(=O)Nc1nnc(Cc2ccc(Cl)c(Cl)c2)s1	-12	?	2	-9	0.7	2%

Quoted at random: 2 compounds from above.
SMILES	CtBP-E1A blk	gsp agonist	D2 potentiator	Six1-Eya2 blk	D2 agonist	gsp antag
CCn1cc(Br)c(-c2nc3ccccc3c(=O)n2N)n1	-3	13%	0	-1	1.9	-10%
COc1ccc(CNC(=S)N/N=C/c2ccc(O)c(OC)c2)cc1	8	-1%[15.4 µM]	-16	-23	-0.4	8%

The list goes on.
SMILES	CtBP-E1A blk	gsp agonist	D2 potentiator	Six1-Eya2 blk	D2 agonist	gsp antag
CCOC(=O)N/N=C1\CC(C)S(=O)(=O)c2ccc(Cl)cc21 (centres undefined)	0	-7%[15.4 µM]	1	3	-6.8	0%
C[C@@H]1CN([C@@H](C)CO)C(=O)CCCn2nncc2CO[C@H]1CN(C)C(=O)C1CCCCC1	1	-1%	1	2	-10	.
COc1ccc(Cl)cc1NC(=O)CSc1nc2sccc2c(=O)[nH]1	-8	-11%	-5	-13	3.6	?
COc1cc(S(=O)(=O)N2CCCCC2)c(OC)cc1Br	-5	0%	-2	10	-5.6	-6%
CSc1ccc(S(=O)(=O)N2CCC(C(=O)NC3CC3)CC2)cc1	7	12%[15.4 µM]	3	4	-2.2	6%
COCCn1nnnc1C(c1ccccc1)N1CCN(C)CC1 (centres undefined)	9	-21%	2	1	-3.1	-2%[15.4 µM]
CC(=O)Nc1ccccc1OC(C)C(=O)N1CC(C)CC(C)C1 (centres undefined)	4	-20%[15.4 µM]	2	7	3.6	4%
COc1ccc(NC(=O)NC2CCCc3ccccc32)cc1 (centres undefined)	25	6%	2	4	-1.2	-17%
COC(=O)Cn1c(O)c(N=NC(=O)CNC(=O)COc2cccc(C)c2)c2ccccc21	.	-31%[inhibitor]	-4	-8	-5.1	-10%
COc1ccc(C(OC(=O)c2ccco2)C(=O)NCc2ccc(C)cc2)cc1 (centres undefined)	-1	15%	-7	-6	-3.9	-4%
C[C@@H]1C=C[C@](Cc2ccccc2)(C(=O)NCCc2c[nH]c3ccccc23)N1C(=O)c1ccccc1	-11	.	-1	-4	-4.9	?
Cc1c(NC(=O)c2ccc(COc3ccc4ccccc4c3)o2)c(=O)n(-c2ccccc2)n1C	-5	-63%[inhibitor]	-7	-4	1.7	-5%
Cc1cc(C(=O)OC(C)C(=O)Nc2cccc(S(=O)(=O)N3CCOCC3)c2)c(C)o1 (centres undefined)	-5	0%	?	-3	-1.1	-21%
Cc1noc(C)c1C(=O)N1CCC2(CC1)Oc1ccc(F)cc1C(=O)C21CC(c2ccc(Cl)cc2)=NO1 (centres undefined)	-5	.	-8	1	-3.2	-14%
CCOC(=O)N1CCN(CCC(=O)Nc2ccc(Br)c(C)c2)CC1	15	-8%[15.4 µM]	-15	-25	0.3	14%
CSc1nc2n(n1)C(c1cc(Br)ccc1F)C(C(=O)N(C)C)=C(C)N2 (centres undefined)	9	13%	-2	-3	-3.8	-2%
CCOC(=O)NC(Nc1nnc(SCC)s1)(C(F)(F)F)C(F)(F)F	2	29%	-14	-26	-1.1	4%
Nc1ccc(C(=O)OCCc2ccccc2)cc1	2	-15%	-16	2	-2.9	11%
COc1ccccc1-c1nc2s/c(=C\c3cccs3)c(=O)n2n1	-1	?	-2	3	-0.6	-3%
Cc1nc2ccccc2c(=O)n1NC(=O)c1cc(Br)ccc1Cl	-15	25%	-3	-10	-3.5	6%
COCCn1c(SCC(=O)N2CC(=O)Nc3ccccc32)nnc1-c1ccoc1C	-4	-7%	1	7	4.4	3%
Cc1ccc(C(=O)N/C(=C/c2ccco2)C(=O)N2CCCCCC2)cc1	1	2%	-4	14	-0.3	-12%
CCOc1ccccc1C1NC(=O)NC(C)=C1C(=O)OCc1ccco1 (centres undefined)	3	1%	-7	-2	-0.9	-13%
OCCOc1ccc(CN2CCN(CCCc3ccccc3)C(CCO)C2)cc1 (centres undefined)	10	-18%	-8	1	-1.0	3%
CC(=O)c1cccc(NC(=O)COC(=O)Cn2cnc3ccccc32)c1	-3	-1%	-4	5	0.3	5%
COc1ccc(C(=O)NCCCNc2nc3cc(C)cc(C)c3cc2C#N)cc1	7	-67%[inhibitor]	1	34	-1.8	.
COc1ccc2nc(NC3=NC(c4ccccc4)CC(=O)N3)nc(C)c2c1 (centres undefined)	-2	12%[15.4 µM]	-6	-16	-4.5	5%
CCOC(=O)Cc1csc(NS(=O)(=O)c2ccc(SC)cc2)n1	.	10%[15.4 µM]	-10	-5	9.2	-5%
CCC(C)(C(=O)NC1CCCCC1)N(C(=O)C1CCC(=O)N1)c1ccccc1 (centres undefined)	3	10%	1	12	0.3	12%
Cc1cc(NC(=O)COC(=O)c2c(Cl)cccc2Cl)no1	3	26%	2	0	-1.3	14%
CC1S/C(=C(\C#N)C(N)=O)N(c2ccc(F)cc2)C1=O (centres undefined)	0	-26%	6	-2	-1.1	-5%
CCOC(=O)CCCNC(=O)COC(=O)[C@@H]1CCCN1S(=O)(=O)c1ccc(Cl)cc1	2	-3%	-7	7	-2.7	-12%
O=P(Cc1cc[n+]([O-])cc1)(c1ccccc1)c1ccccc1	0	3%	-6	5	-3.2	-9%
COC(=O)c1ccc(COc2ccccc2/C=C(\C#N)C(=O)Nc2ccc(C)cc2)cc1	0	-5%	16	0	6.8	25%
O=C(NCc1ccccn1)c1c(O)c2cccc3c2n(c1=O)CC3	1	-36%[inhibitor]	-13	1	-2.0	3%
COc1ccccc1C1=NOC(C(=O)N2CCN(C(=O)c3ccco3)CC2)C1 (centres undefined)	3	?	-2	1	-0.6	-2%
CCC(C)(C)NC(=O)C(c1ccc(OC)cc1)N(C(=O)CCC(=O)Nc1cc(C)on1)c1ccc(OC)cc1OC (centres undefined)	16	7%[15.4 µM]	20	-4	0.7	.
Cc1ccc2nc(-c3ccccc3)cc(C(=O)NNC(=O)c3csc(N4CCOCC4)n3)c2c1	-11	-47%[inhibitor]	-37	?	-8.1	1%
CN(C(=O)CSc1nnc(-c2ccncc2)n1C)C1CCS(=O)(=O)C1 (centres undefined)	12	-5%	-11	1	-1.4	-3%
CCCn1c(N)c(C(=O)COC(=O)CNC(=O)c2ccccc2OCC)c(=O)[nH]c1=O	-14	5%	-2	-4	-0.8	2%
CCc1ccc(CN(C(=O)c2cc3ccccc3oc2=O)C2CCS(=O)(=O)C2)cc1 (centres undefined)	0	-29%	1	3	-5.3	-1%
Cc1cc(N/N=C/c2ccc(N(C)C)cc2)nc(NCc2ccccc2)n1	-2	-30%[inhibitor]	-11	-14	-1.8	2%
CCCCn1c(SCC(=O)/C(C#N)=C(\C)N)nc2ccccc2c1=O	2	?	-7	-2	-1.6	8%

Arranged by length of the SMILES (lowest first): part of the list above
SMILES	CtBP-E1A blk	gsp agonist	D2 potentiator	Six1-Eya2 blk	D2 agonist	gsp antag
CCOC(=O)Nc1nnc(Cc2ccc(Cl)c(Cl)c2)s1	-12	?	2	-9	0.7	2%
O=C(NCc1ccccn1)c1c(O)c2cccc3c2n(c1=O)CC3	1	-36%[inhibitor]	-13	1	-2.0	3%
CCOc1ccccc1C1NC(=O)NC(C)=C1C(=O)OCc1ccco1 (centres undefined)	3	1%	-7	-2	-0.9	-13%
CC(=O)c1cccc(NC(=O)COC(=O)Cn2cnc3ccccc32)c1	-3	-1%	-4	5	0.3	5%
CN(C)CCN1C(=O)CCC2(C)C1=CCC1C2CCC2(C)C1CCC2(C)O (centres undefined)	-5	2%[15.4 µM]	-5	0	0.1	11%

Compound profiles, as listed above. Order of screens: CtBP-E1A blk | gsp agonist | D2 potentiator | Six1-Eya2 blk | D2 agonist | gsp antag
`CC(=O)c1cccc(NC(=O)COC(=O)Cn2cnc3ccccc32)c1` as listed: -3 | -1% | -4 | 5 | 0.3 | 5%
`CCc1ccc(CN(C(=O)c2cc3ccccc3oc2=O)C2CCS(=O)(=O)C2)cc1` (centres undefined) as listed: 0 | -29% | 1 | 3 | -5.3 | -1%
`CCOC(=O)CCCNC(=O)COC(=O)[C@@H]1CCCN1S(=O)(=O)c1ccc(Cl)cc1` as listed: 2 | -3% | -7 | 7 | -2.7 | -12%
